Vaccinia mCherry = vaccinia inhibition (mCherry reporter). Vaccinia virus mCherry reporter infection, fluorescence; about a quarter of the inactives have no number. Potency, µM (highest dose often 36.5 µM), without a hit: at the highest dose activity change, negative = inhibition, hits mostly inhibitors. hit rate 0.63% among 310,000; active = well fitted inhibition curve with a large enough effect; inconclusive = small, poorly fitted or top-dose-only effect; inactive = no such curve, though single readings can be large or run the other way; tested in A549 cells; further: nearly all actives have a fitted effect of over 35% in size; inactives centre near -10
Vaccinia Venus = inhibitors of vaccinia virus (Venus reporter); Potency, µM (titrated, usually from 36.5 µM), for the others: at the highest dose activity change, negative = inhibition, actives largely listed as inhibitors; Vaccinia virus Venus reporter expression, fluorescence; hit rate 0.46% among 330,000; active means well fitted inhibition curve with a large enough effect; inconclusive means small, poorly fitted or top-dose-only effect; inactive means no such curve, though single readings can be large or run the other way; tested in A549 cells; further: nearly all actives have a fitted effect of over 30% in size; inactives centre near -10
Numbers without * were called inactive; i = inactive; ? = inconclusive; / = not tested or not shown; & = joins results of further samples; [ ] = dose if it differs, or a comment. On the % scale 0 is the no-effect control and ±100 the full control effect; potency means the concentration at half of the fitted maximal effect.

SMILES	Vaccinia mCherry	Vaccinia Venus
COc1cccc(NC(c2nnc(-c3ccccc3)o2)c2ccc(F)cc2Cl)c1 (centres undefined)	-9%	-15%
CCCNC(=O)CCC(NS(=O)(=O)c1ccc(C)cc1)C(=O)NCCC (centres undefined)	-9%	-7%
Cc1ccc(NC(=O)NCCSc2ccc(C)cc2)cc1	-3%	-25%
COc1ccc(NC(=O)CN(C)C(=O)/C=C/c2ccc(OCc3ccccc3)cc2)cc1	-13%	-8%
CCOc1cc(CN2CCN(Cc3ccc(C)o3)C(CCO)C2)ccc1OC (centres undefined)	-3%	-6%
O=C(OCC(=O)c1cccc2ccccc12)c1ccc(CO)cc1	-17%	-14%
O=C(Nc1ccc(-c2csc(Nc3ccc(Cl)cc3)n2)cc1)c1cc([N+](=O)[O-])cc(C(F)(F)F)c1	i	?
CCc1ccc(N(CC(=O)Nc2nc3ccc(C)cc3s2)S(=O)(=O)c2c(C)noc2C)cc1	4%	-4%
O=C(CN1C(=O)NC2(CCc3ccccc32)C1=O)c1ccc2c(c1)OCCO2 (centres undefined)	-27%	-27%
Cc1cc2c(cc1S(=O)(=O)N(C)c1ccccc1)NC(=O)CO2	i	2%
COc1ccc(-n2c(C)nc3ccccc3c2=O)c([N+](=O)[O-])c1	-17%	-6%
O=C(Nc1ccccc1Cl)NC1(C(=O)NCc2cccnc2)CCCCC1	-1%	-13%

Pulled by structure from above (3):
SMILES	Vaccinia mCherry	Vaccinia Venus
Cc1cc2c(cc1S(=O)(=O)N(C)c1ccccc1)NC(=O)CO2	i	2%
COc1cccc(NC(c2nnc(-c3ccccc3)o2)c2ccc(F)cc2Cl)c1 (centres undefined)	-9%	-15%
O=C(Nc1ccccc1Cl)NC1(C(=O)NCc2cccnc2)CCCCC1	-1%	-13%

(continued)
SMILES	Vaccinia mCherry	Vaccinia Venus
Cc1cccc(N(C)S(=O)(=O)c2c[nH]c3ccc([N+](=O)[O-])cc23)c1	?	?
CCOC(=O)C1CCN(C(=O)COc2ccc(Cl)cc2)CC1	-13%	-9%
COc1cccc(NC(=O)N2CCC(NC(=O)c3ccco3)CC2)c1	-9%	-8%
Cc1csc2nc(-c3cccc(NC(=O)c4cccc(F)c4)c3)cn12	?	-16%
COC(=O)[C@@H]1C[C@@]2(O)[C@@H](O)[C@@H](O)[C@@H](O)C[C@H]2N1Cc1ccc(Cl)cc1	i	-3%
O=C(O)c1cc(-c2ccc3c(c2)OCO3)nc2ccc(Cl)cc12	-11%	-16%
O=C(O)Cc1ccc(NC(=O)Nc2cccc(Cl)c2)cc1	-8%	0%
CCc1cccc(NC(=O)COC(=O)c2ccccc2OCc2ccccc2Br)c1	?	13µM*
COc1ccc(-c2nn(CCC#N)cc2C(=O)Nc2cccc(C(=O)O)c2)cc1[N+](=O)[O-]	i	0%
COc1cccc(-n2nnc3c(=O)n(Cc4c(F)cccc4Cl)cnc32)c1	i	-5%
CCC1(C)CC(=O)NC1=O (centres undefined)	-10%	-6%
CCCNC(=O)CSCc1nc(-c2ccc(SC)cc2)oc1C	-13%	-12%
COC(=O)C1=C(C)NC(=O)C1(NC(=O)c1cccnc1)C(F)(F)F (centres undefined)	-4%	-10%
O=C(Nc1ccc(NC(=O)C23CC4CC(CC(C4)C2)C3)cc1)c1cc(F)c(F)cc1Cl	i	-8%
COc1ccccc1CNC(=O)Cn1c(=O)oc2ccccc21	-8%	-9%
CC(=O)Nc1cccc(NC(=O)COC(=O)C2CC3CCCC(C2)C3=O)c1 (centres undefined)	-14%	-15%
O=C(NC(Cc1c[nH]c2ccccc12)c1nnc2n1CCCCC2)c1cccs1 (centres undefined)	-15%	-14%
COc1ccccc1N1CCN(CC(O)COc2ccc(C)cc2C(C)(C)C)CC1 (centres undefined)	-29%	-20%
CCOC(=O)CN1C(=O)C(Sc2n[nH]c(-c3ccc(C)cc3)n2)CCc2ccccc21 (centres undefined)	?	-29%
CCN1CCN(Cc2cccnc2)CC1	-15%	-11%
O=C(NC(=S)Nc1ccccc1[N+](=O)[O-])c1ccccc1Cl	-12%	-7%
CCOC(=O)CS(=O)(=O)c1ccc2ccccc2c1	-19%	-4%
O=c1cc(CN2CCNCC2)nc2sccn12	-13%	-7%
C[C@@H]1CN([C@@H](C)CO)C(=O)c2cc(NC(=O)C3CCCCC3)ccc2O[C@@H](C)CCCCO[C@H]1CN(C)S(=O)(=O)c1ccc(Cl)cc1	i	-28%
Cc1ccc(CNC(=O)C(=O)NCC2OCCN2C(=O)c2cccs2)cc1 (centres undefined)	-15%	-13%
Cc1ccccc1NC(=O)Cn1nnc(C(=O)NCCc2ccccc2)c1N	1%	6%
CCOC(=O)c1c(NC(=O)CN2CCN(C(=O)c3ccco3)CC2)sc(C(N)=O)c1C	-5%	-19%
C=CCC[C@@H](Cc1ccc(F)cc1)C(=O)OC[C@H](C)NC(=O)[C@@H](CC=C)CC(=O)N(CCO)Cc1ccccc1	-1%	?
O=C(c1ccc(Cl)c([N+](=O)[O-])c1)N1CCN(Cc2ccc3c(c2)OCO3)CC1	-19%	-13%
c1cnc(Oc2ccc3oc4ccccc4c3c2)nc1	-2%	-22%
c1ccc(CCc2nn3c(Cn4cnc5ccccc54)nnc3s2)cc1	-25%	-19%
O=C(c1c[nH]c2ccc(S(=O)(=O)N3CCC4(CC3)OCCO4)cc2c1=O)N1CCC2(CC1)OCCO2	1%	-4%
C[C@@H]1CN([C@@H](C)CO)S(=O)(=O)c2ccc(Br)cc2O[C@@H]1CN(C)Cc1ccccn1	-7%	-9%
CCOCCn1ccc2c(OCC(=O)Nc3ccccc3OC)cccc2c1=O	-11%	-9%
CCn1c(C)c2c([n+]1CC)CC(C)(C)CC2=O	i	-7%
Cc1ccc(NC(=O)CN2C(=O)CCc3ccccc32)cc1C	-3%	-14%

Continued; the last three above are carried over.
SMILES	Vaccinia mCherry	Vaccinia Venus
CCOCCn1ccc2c(OCC(=O)Nc3ccccc3OC)cccc2c1=O	-11%	-9%
CCn1c(C)c2c([n+]1CC)CC(C)(C)CC2=O	i	-7%
Cc1ccc(NC(=O)CN2C(=O)CCc3ccccc32)cc1C	-3%	-14%
O=C(C1CCN(S(=O)(=O)c2ccc3ccccc3c2)CC1)N1CCN(c2ncccn2)CC1	-5%	-3%
CC1(C)C(=O)C2(CCCCC2)C(=O)OC1c1cccn1-c1ccc([N+](=O)[O-])cc1 (centres undefined)	-15%	2%
Cc1c(C)n(Cc2ccccc2)c2ccc(C(=O)O)cc12	1%	-2%
CCCN(CC(=O)Nc1cc(Cl)ccc1Cl)C(=O)c1ccc(N2CCCC2=O)cc1	-26%	-20%
Cc1csc2nc(CNS(=O)(=O)c3ccc(-c4ccccc4)cc3)cn12	i	-7%
COc1cccc(C(=O)NCc2ccc3c(c2)OCO3)c1	i	-12%
O=C(Nc1ccccc1)P(=O)(O)c1ccccc1	-12%	4%
O=C(/C=C/Nc1ccccc1)c1ccc(Oc2ncccn2)cc1	-20%[1.46 µM]	-19%
CC(C)CN(/C=N/c1sc2c(c1C#N)CCCCC2)CC(C)C	-2%	-11%
Cc1cc(C(=O)CN2C(=O)NC3(CCCCCC3)C2=O)c(C)n1C	-16%	-16%
CSc1nn(CCc2ccncc2)c(=S)s1	i	-26%
CCCCC/C=C/C1=CC(=O)C[C@H](c2ccc(Cl)cc2)C1	-3%	-17%
Cc1ccccc1CN1C(=O)c2ccccc2Sc2ccc(C(=O)NCCN3CCOCC3)cc21	-10%	-20%
COc1cc(OC)cc(-c2n[nH]c(=S)n2-c2ccc3c(c2)OCO3)c1	?	-23%
CNC(=O)c1sccc1S(=O)(=O)Cc1c(Cl)cccc1Cl	-9%	-1%
COC(=O)[C@@H](NC(=O)Nc1ccc2c(c1)OCCO2)C(C)C	/	-13%
O=C(CCn1c(=O)oc2ccccc21)NCc1cccs1	-15%	-7%
FC(F)(F)c1cc(NCc2cccs2)n2ncnc2n1	-14%	-5%
CC(C)Oc1ccc(CCN)cc1Cl	i	-2%
CC(=O)Nc1ccc(C(=O)OCC(=O)c2ccc(S(=O)(=O)N3CCCCC3)cc2)cc1	-5%	-14%
CCc1ccccc1NC(=O)Cn1nc(C)c2nn(-c3ccc(Cl)cc3)c(C)c2c1=O	-26%	-13%
O=c1[nH]c(N2CCN(Cc3ccccc3)CC2)nc2c1CCC2	-12%	-4%
O=C(C1CCN(S(=O)(=O)c2ccccc2)CC1)N1CCN(Cc2ccc3c(c2)OCO3)CC1	-3%	-13%
O=C(CNCc1ccccc1)Nc1ccc(Oc2ccccc2)cc1	-28%	-25%

Next part (3 carried over from the part before).
SMILES	Vaccinia mCherry	Vaccinia Venus
O=c1[nH]c(N2CCN(Cc3ccccc3)CC2)nc2c1CCC2	-12%	-4%
O=C(C1CCN(S(=O)(=O)c2ccccc2)CC1)N1CCN(Cc2ccc3c(c2)OCO3)CC1	-3%	-13%
O=C(CNCc1ccccc1)Nc1ccc(Oc2ccccc2)cc1	-28%	-25%
CCOC(=O)[C@]12CCCC=C1N(Cc1ccco1)C(=O)[C@H](CC(=O)N1CCOCC1)C2	41%[activator]	-4%
CCCc1cc(C(=O)NCc2ccco2)no1	1%	0%
Cc1nn(-c2ccccc2)nc1C(=O)Nc1ccc2[nH]ncc2c1	-17%	-29%
COCCC(=O)N1CCCC(N2CCN(c3ccc(F)cc3)CC2)C1 (centres undefined)	-6%	0%
O=[N+]([O-])c1ccc(Br)c(CN2CCN(c3ncc(Cc4ccccc4)cn3)CC2)c1	?	-18%
O=C(Nc1ccc2c(c1)C(=O)OC2)Nc1cccc2ccccc12	-11%	-13%
Cc1nn(C)c(C)c1S(=O)(=O)NCCc1ccc(Cl)cc1	-14%	-11%
CCOC(=O)c1c(NC(=S)NC(=O)c2cnn(CC)c2)sc2c1CCC(C)C2 (centres undefined)	-7%	6%
CCCNC(=O)C1(C)CCCN(C(=O)Cc2cccc(OC)c2)C1 (centres undefined)	14%	-12%
Oc1ccccc1-c1cncn1Cc1ccccc1	-10%	-8%
Cc1ccc(-c2csc(/C(C#N)=C/Nc3ccc4c(c3)OCCO4)n2)cc1	-20%	?
COc1ccc(NC(=O)c2cc(C3CC3)nc3c2c(C)nn3-c2ccccc2)c(OC)c1	-8%	-16%
C=CCn1c(=N)c(C#N)cc2c(=O)n3ccccc3nc21	/	5%
CCCCCCn1c(SCCN2CCOCC2)nc2c1c(=O)[nH]c(=O)n2C	?	-20%
CCOCCn1ccc2c(OCC(=O)Nc3ccc(C(N)=O)cc3)cccc2c1=O	-12%	-2%
NS(=O)(=O)c1ccc(CCNC(=O)c2ccc3nc4ccc(Cl)cc4c(=O)n3c2)cc1	-7%	-18%
COCCCNC(=O)c1ccc2c(c1)nc(C)n2-c1cccc(C)c1	5%&-5%	-11%&-7%
N#Cc1ccccc1OCC(O)CNCCNC(=O)Nc1ccccc1 (centres undefined)	i	-15%
COc1ccccc1N(C(=O)c1snc(C(N)=O)c1N)C(C(=O)NC1CCCC1)c1ccc(N(C)C)cc1 (centres undefined)	-5%	-8%
CC(=O)c1ccc(-c2cnc3c(NC=O)cc(-c4ccc(C(=O)N5CCOCC5)cc4)cn23)cc1	-23%	-29%
CCN(c1ccccc1)S(=O)(=O)c1ccc(Cl)c(C(=O)N(CC2CCCO2)C2CCS(=O)(=O)C2)c1 (centres undefined)	i	-18%
COc1ccccc1C(=O)NCc1ccc(-c2nc3ccccc3s2)cc1	-11%	-9%
O=C(Cn1nc(-c2ccccc2)oc1=O)OCC(=O)c1ccc(F)c(F)c1	i	-6%
O=C(Nc1ccc(-c2nc3ccccc3o2)c(O)c1)c1ccccc1	-12%	-8%
COc1ccc(-c2nc3ccc(NS(=O)(=O)c4ccc(C)cc4)cc3o2)cc1	1%	-9%
COc1cc(OC)cc(C(=O)N(CCCN2C(=O)c3cccc4cccc(c34)C2=O)c2cccc(OC)c2)c1	-15%	-4%
O=C(NCCN1CCOCC1)C1CC(=O)N(c2cccc(C(F)(F)F)c2)C1 (centres undefined)	-15%	-13%
CC(C)(C)OC(=O)[C@H](Cc1ccccc1)NC(=O)c1nc[nH]c1C(=O)N[C@@H](Cc1ccccc1)C(=O)OC(C)(C)C	?	?
O=C(NN1C(=O)c2ccccc2C1=O)C1CCCCC1	-6%	-1%
O=c1[nH]sc2cc(F)ccc12	-16%	-8%
Cc1ccc(CN(Cc2ccco2)C(=O)c2ccc(Cl)cc2)o1	6%	-1%
CC1(C)CC(=O)C(CC2=C(N)CC(C)(C)CC2=O)=C(N)C1	i	-13%
COc1ccccc1Nc1ccc(C(=O)NC2CCCCC2)cn1	i	-25%
O=c1c2ccccc2nc(SCc2ccncc2)n1CC1CCCO1 (centres undefined)	-16%	-16%
COC(=O)C(C)n1cnc2c(nnn2-c2ccc(C)cc2)c1=O (centres undefined)	-7%	1%
CCCn1c(CN2CCN(c3cccc(Cl)c3)CC2)nc2c1c(=O)n(C)c(=O)n2C	-20%	-18%
O=C(COC(=O)c1cc(S(=O)(=O)N2CCCC2)ccc1O)Nc1ccc(F)cc1F	-18%	-23%
O=C(CSc1nc2ccccc2c(=O)n1CC1CCCO1)Nc1ccccc1 (centres undefined)	i	-5%
COc1cc(/C=N/N2CCCCC2)cc([N+](=O)[O-])c1O	-6%	-19%
CN(C)c1nc(N)nc(CSc2nc3cc(Cl)ccc3o2)n1	-7%	-3%
CN(C)S(=O)(=O)N1CCC(Oc2ccc(C(=O)N3C[C@@H]4CCC[C@H]3C4)cc2)CC1	-24%	-28%
Cc1ccc(CN2CC(C(=O)NCCCn3nc(C)cc3C)CC2=O)cc1 (centres undefined)	i	-9%
Cc1[nH]c2ccccc2c1C(=O)NS(=O)(=O)Nc1ccc(F)cc1	-8%	13%
